Hsp70 activator: Hsp70 transcriptional activation, primary screen. HeLa Hsp70 promoter luciferase reporter, luminescence; scaled: vehicle 0, proteasome-inhibitor control 100%. activation, % at 10 µM. hit rate 0.04% among 200,000. AID 1203;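 active means activation above the mean across all tested compounds plus 3 SD, cutoff set per campaign, cut at about 5.5% in these data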;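 further: 100% = MG132 at 30 µM as the positive control and 0% = DMSO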
STAT3 activator: STAT3 signaling activation | hit rate 0.91% among 190,000 | U3A cells, IL-6 STAT3-luciferase reporter, luminescence; 100% = signal with IL-6 EC80 alone | AID 871 | activation (% of control), % at 5.6 µM;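 active means activation above the screen-wide mean of compound activation plus 3 SD, cut at about 130% in these data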;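 further: 0% = background luminescence of wells with medium and substrate only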
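Detection: reporter luminescence signal / Assay system: STAT1-lacking human U3A cells, STAT3 luciferase reporter / Incubation: compound pre-incubation 1 h before IL-6, then 6 h stimulation at 37 °C / Control set: IL-6-only high control / Read-out: % activation relative to IL-6 control / Probe or stimulus: Interleukin-6, 33 ng/mL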
APP 5'UTR act: APP 5'UTR luciferase reporter activation; SH-SY5Y APP 5'UTR luciferase reporter, luminescence; zero percent = DMSO vehicle wells; activation, % at 2 µM; hit rate 1% among 190,000;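 active means activation above a set limit, based on mean plus 3 SD of controls, cut at about 140% in these data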; further: values of inactives mirror those of a sister screen read the other way
STAT1 blocker: inhibitors of IFN-gamma induced STAT1 signaling; NIH 3T3 STAT1-luciferase reporter, luminescence; inhibition, % at 5.5 µM; AID 920; hit rate 0.35% among 200,000;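 active means inhibition above a set limit, the mean inhibition across all tested compounds plus 3 SD, cut at about 34% in these data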;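 further: 0% = IFN-gamma with DMSO and 100% = IFN-gamma with 300 µM nifuroxazide; values of inactives mirror those of a sister screen read the other way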
STAT1 activator: increases IFN-gamma driven STAT1 reporter signal | NIH 3T3 STAT1-luciferase reporter, luminescence; 100% = IFN-gamma alone, no compound | activation (% of control), % at 5.5 µM | hit rate 2.6% among 200,000 | AID 932;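 active means activation above the screen-wide mean activation plus 3 SD, cut at about 130% in these data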;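 further: raw ratio to IFN-gamma control signal so 100% means no change and 0% no light; values of inactives mirror those of a sister screen read the other way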
Starred values were filed as active, the others as inactive. A portion of the library, so the mix of outcomes need not match the whole.

compound | Hsp70 activator | STAT3 activator | APP 5'UTR act | STAT1 blocker | STAT1 activator
CC(C)(C)c1ccc(C(O)CCCN2CCC(C(O)(c3ccccc3)c3ccccc3)CC2)cc1 (stereo not given) | -0.2 | 103.8 | -26.0 | 8.0 | 92.8
CN1Cc2c(N)cccc2C(c2ccccc2)C1 (stereo not given) | -0.4 | 96.9 | 2.5 | 1.1 | 99.0
CCn1cc(C(=O)O)c(=O)c2ccc(C)nc21 | -0.3 | 107.3 | 3.5 | -6.1 | 105.6
O=C(C1CCCCC1)N1CC(=O)N2CCc3ccccc3C2C1 (stereo not given) | -0.1 | 101.0 | -10.2 | 0.3 | 99.8
NC(Cc1ccc(O)c([N+](=O)[O-])c1)C(=O)O (stereo not given) | -0.3 | 102.3 | -16.0 | -2.1 | 101.8
CN(C)c1ccnc2sc(C(N)=O)c(N)c12 | -0.5 | 102.6 | -17.1 | 20.4 | 81.4
COC1=CC(=O)CC(C)C12Oc1c(Cl)c(OC)cc(OC)c1C2=O (stereo not given) | -0.3 | 101.6 | 3.8 | 2.2 | 98.0
CC(=O)Oc1ccc(C(c2ccc(OC(C)=O)cc2)c2ccccn2)cc1 | -0.3 | 95.5 | 16.5 | 3.3 | 97.0
COC(=O)C1=C(C)NC(C)=C(C(=O)OC)C1c1ccccc1[N+](=O)[O-] | -0.3 | 95.2 | 7.9 | -7.4 | 106.8
CC(=O)Nc1ccc(S(=O)(=O)c2ccc(N)cc2)cc1 | 0.1 | 109.5 | 6.8 | 1.5 | 98.6

4 compounds drawn at random from the list so far:
compound | Hsp70 activator | STAT3 activator | APP 5'UTR act | STAT1 blocker | STAT1 activator
COC1=CC(=O)CC(C)C12Oc1c(Cl)c(OC)cc(OC)c1C2=O (stereo not given) | -0.3 | 101.6 | 3.8 | 2.2 | 98.0
O=C(C1CCCCC1)N1CC(=O)N2CCc3ccccc3C2C1 (stereo not given) | -0.1 | 101.0 | -10.2 | 0.3 | 99.8
COC(=O)C1=C(C)NC(C)=C(C(=O)OC)C1c1ccccc1[N+](=O)[O-] | -0.3 | 95.2 | 7.9 | -7.4 | 106.8
NC(Cc1ccc(O)c([N+](=O)[O-])c1)C(=O)O (stereo not given) | -0.3 | 102.3 | -16.0 | -2.1 | 101.8

Compound profiles, as listed above.
Profile of CN(C)c1ccnc2sc(C(N)=O)c(N)c12 → Hsp70 activator = -0.5; STAT3 activator = 102.6; APP 5'UTR act = -17.1; STAT1 blocker = 20.4; STAT1 activator = 81.4
Profile of COC1=CC(=O)CC(C)C12Oc1c(Cl)c(OC)cc(OC)c1C2=O (stereo not given) → Hsp70 activator = -0.3; STAT3 activator = 101.6; APP 5'UTR act = 3.8; STAT1 blocker = 2.2; STAT1 activator = 98.0

From PubChem
